Screening data deposited in PubChem BioAssay by PCMD.
Calb biofilm kill = clotrimazole potentiators killing C. albicans biofilm, primary screen, 4-compound mixtures | C. albicans biofilm persisters + clotrimazole, fluorescence viability; primary screen in compound mixtures of four per well | inhibition, % at 7.6 µM | 120,000 compounds, 0.02% hits | AID 1242, 2008;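 active = inhibition above 30.3% in the primary screen of four-compound pools, then above 30% when the compound was retested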;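 note: compounds exposed to preformed 24 h biofilms for 48 h; the number belongs to the whole pool; some results filed as inactive read as strong as hits; inactives centre near 12; 0% = biofilm with clotrimazole alone and 100% = kill control; retested singly at about 60 µM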
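Test system: C. albicans biofilms. Buffer or medium: RPMI/MOPS medium, pH 7.0. Timing: 48 h compound exposure at 37 °C. Technique: Alamar Blue fluorescence. Evaluation: percent inhibition of biofilm viability.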
* marks the source's active call; other numbers are inactive results; & = joins results of further samples.

SMILES | Calb biofilm kill
Oc1ccccc1/C=N/N1CCCCC1 | 11
COC(=O)N/N=C/C1=CCC2CC1C2(C)C (centres undefined) | 9
CCCOP(=O)(c1ccc(N(C)C)cc1)C(Nc1ccccc1)c1ccc(C)cc1 (centres undefined) | 21
O=C(Nc1cccc(C(F)(F)F)c1)n1cc(-c2ccccn2)c(N2CCOCC2)n1 | 16
Cc1cc(NC(=O)CN2C(=O)CCSc3ccccc32)no1 | 6
O=C(O)CSCC(=O)Nc1ccc(C(F)(F)F)cc1 | 13
NC(=S)NC1CCS(=O)(=O)C1 (centres undefined) | 11
Cc1c(-c2ccncc2)oc2ccc(Br)cc2c1=O | 7
O=C(CCc1ccccc1)Nc1ccccc1C(=O)N1CCOCC1 | 9
CC(C)CC(=O)Nc1ccc(Nc2ccccc2)cc1 | 7
COc1cc2c(cc1OC)-c1c(OC)c(OC)cc3ccnc(c13)C2=O | 11
O=C(NC(=S)N1CCN(c2ccccn2)CC1)c1ccccc1 | 4
Cn1ccnc1SCC(=O)Nc1ccccc1 | 14
Cc1ccc(NC(=O)C(=O)NCC2CCN(C(=O)c3cccc([N+](=O)[O-])c3)CC2)cc1 | 1
CCn1c(=O)c(=O)n(CC)c2cc(S(=O)(=O)Nc3ccc(C)cc3)ccc21 | 21
Cc1cc(C)n(CC(=O)N/N=C/c2ccccn2)n1 | 0
CC(C)c1cc(-c2cc(-c3ccc(Cl)cc3)on2)nc(NC2CCCC2)n1 | 13
CC(=O)N1CCN(c2ncnc3sc(-c4ccccc4)cc23)CC1 | 12
CC(C)Cc1ccc(/C=C/C(=O)N2CCOCC2)cc1 | 15
Nc1cc(N)nc(SCc2cc([N+](=O)[O-])cc3c2OCOC3)n1 | 22

Compounds listed so far containing an aryl thioether with sulfur outside any ring, in the order listed:
SMILES | Calb biofilm kill
Cn1ccnc1SCC(=O)Nc1ccccc1 | 14
Nc1cc(N)nc(SCc2cc([N+](=O)[O-])cc3c2OCOC3)n1 | 22

More structures.
SMILES | Calb biofilm kill
NC(=S)N/N=C/c1cccc(Br)c1 | 3
O=C(CSc1n[nH]c(=O)[nH]c1=O)N1CCCCCC1 | 16
CCOC(=O)/C(C#N)=C/Nc1ccccc1OC(F)(F)F | 4
COc1cc2c(cc1OC)CN(C1CC(=O)N(c3c(C)cccc3C)C1=O)CC2 (centres undefined) | 12
COC(=O)C1=C2SCC(=O)N2C(N)=C(C#N)C1 | 13
CC(=O)c1c(C)[nH]c(C(=O)Nc2nc(-c3ccc(-c4ccccc4)cc3)cs2)c1C | 6
O=C(CCCCn1c(=O)[nH]c2ccccc2c1=O)N1CCN(c2ncccn2)CC1 | 16
COc1ccc(CSc2nc3ccccc3c(=O)n2CCCN2CCOCC2)cc1F | 10
CCOP(=O)(OCC)/C(C#N)=C/c1ccc([N+](=O)[O-])cc1 | 2
CCn1nc(C)c(/C=N\NC(=O)c2cccc(OC)c2)c1C | -4
O=C(CC(Nc1ccc(Cl)cc1Cl)C(=O)O)c1ccccc1 (centres undefined) | 15
O=C1CN(C(=O)CNCc2ccccc2)c2ccccc2N1 | 31
COC(=O)CN(c1cc(Cl)ccc1OC)S(=O)(=O)c1ccc(OC)c(OC)c1 | 17
CCc1ccc(S(=O)(=O)NCCc2cn3ccc(C)cc3n2)s1 | 7
Cc1sc(NC(=O)Cc2ccc3c(c2)OCO3)nc1-c1ccc2c(c1)CCN2C(=O)c1cccc(F)c1 | 20
COc1ccc(Nc2nc3c(C)cccc3cc2C#N)cc1 | 17
Cc1ccc2[nH]c(=O)c(CN(C)C(=O)c3cccs3)cc2c1 | 19
Cc1csc(NC(=O)c2cc(C)nc3ccccc23)n1 | 15
CCOC(=O)N1CCN(C(=O)COC(=O)c2cc(Cl)c(O)c(Cl)c2)CC1 | 0
CCn1cc(C(=O)OCC(=O)N(C)Cc2ccccc2)c(=O)c2ccc(C)nc21 | 15
O=C(NC(=S)Nc1ccccc1)c1ccc(Br)o1 | 10
NC(=O)c1ccsc1NC(=O)COC(=O)/C=C/c1ccc([N+](=O)[O-])cc1 | 14
CC(=O)c1ccccc1OC(=O)CCN1C(=O)C2C3C=CC(C4CC34)C2C1=O (centres undefined) | 14
CC(=O)Nc1nc(C)c(Oc2cccc(C(F)(F)F)c2)c(=O)[nH]1 | 5
C=CC[n+]1c(-c2ccccc2)csc1NC(C)(C)C | 18
COc1ccc2c(c1)CC/C(=C/c1cc(OC)c(OC)c(OC)c1)C2=O | 1
COC1CCCN(Cc2cn(C)nc2-c2ccc(Oc3ccccc3)cc2)C1 (centres undefined) | 15
Cc1ccc(NC(=O)CC2SC(=NC3CCCCC3)NC2=O)cc1 (centres undefined) | 14
CN(C)/C=C1\N=C(c2ccc3c(c2)OCO3)OC1=O | 9
C[C@H]1C=C(C(=O)N2CCN(Cc3ccc4c(c3)OCO4)CC2)O[C@@H](OCc2ccc(CO)cc2)C1 | 20
Cc1ccc(NC(=O)CNCCCN2CCOCC2)cc1S(=O)(=O)N1CCCCC1 | 14
Cc1nn(C(C)(C)C)c(N)c1-c1ccccc1 | 15
O=C(CN1C(=O)CCC1=O)NNc1ccc2ccccc2c1 | 6
CCCC(=O)Nc1ccc(C(=O)n2ccc(C)n2)cc1 | 20
Cc1ccccc1NC(=O)CSc1nn2c(=O)c(C)nnc2s1 | 15
Cc1cc(C(=O)Nc2nc3ccc(Cl)cc3s2)nn1C | 23
O=[N+]([O-])c1cc2c(cc1[N+](=O)[O-])OCCOCCOCCOCCO2 | 10
O=S(=O)(Nc1cccc(S(=O)(=O)N2CCOCC2)c1)c1ccc2c(c1)OCCO2 | 18
O=S(=O)(NCCc1csc(-c2ccccc2)n1)c1cccnc1 | 19
O=C(N/N=C/c1ccc(OCc2ccccc2)cc1)c1ccc(O)cc1 | 12

In the list so far, seven contain an aryl methoxy group.
SMILES | Calb biofilm kill
COc1cc2c(cc1OC)-c1c(OC)c(OC)cc3ccnc(c13)C2=O | 11
COc1cc2c(cc1OC)CN(C1CC(=O)N(c3c(C)cccc3C)C1=O)CC2 (centres undefined) | 12
COc1ccc(CSc2nc3ccccc3c(=O)n2CCCN2CCOCC2)cc1F | 10
CCn1nc(C)c(/C=N\NC(=O)c2cccc(OC)c2)c1C | -4
COC(=O)CN(c1cc(Cl)ccc1OC)S(=O)(=O)c1ccc(OC)c(OC)c1 | 17
COc1ccc(Nc2nc3c(C)cccc3cc2C#N)cc1 | 17
COc1ccc2c(c1)CC/C(=C/c1cc(OC)c(OC)c(OC)c1)C2=O | 1

(list continues)
SMILES | Calb biofilm kill
CS(=O)(=O)N1CCC(C(=O)Nc2cc(Cl)cc(Cl)c2)CC1 | 19
CCOc1cccc2sc(Cl)nc12 | 16
Cc1cccc(C)c1N=Cc1c(C(F)(F)F)[nH][nH]c1=O | 9
CCCOc1ccc(-c2nnn(CC(=O)N3CCCC(C)C3)n2)cc1 (centres undefined) | 25
CS(=O)(=O)NCCCNc1ccc(C(F)(F)F)cc1[N+](=O)[O-] | 22
CC(=O)c1cccc(NC(=O)NNC(=O)CCC(=O)Nc2ccc(C)c(C)c2)c1 | 14
Cn1nc(C(F)(F)F)c(CN2CC(C)(C)C2=O)c1N1CCOCC1 | 10
COc1ccc(Cc2nnc(NS(=O)(=O)c3ccc(Cl)cc3)s2)cc1OC | 30
c1ccc(Nc2ccnc(Nc3ccccc3)n2)cc1 | 27
CC(C)(CO)N=C1NS(=O)(=O)c2cc([N+](=O)[O-])ccc21 | 13
Cc1csc(=Nc2ccccc2)n1CCO | 8
O=C(CSc1nnc2ccccn12)Nc1ccc2c(c1)OCO2 | 12
CC1C/C(=N\NC(=O)CCc2ccc(S(=O)(=O)N3CCOCC3)cc2)CC(C)(C)C1 (centres undefined) | 9
Cc1cc(C)n(/N=C/c2cccs2)c(=O)c1C#N | 11
O=C(O)c1cccc(S(=O)(=O)NCCc2ccccc2)c1 | 18
CC(=O)c1c(C(C)=O)c(C)n(C2CCCCC2)c1C | 17
COc1ccc(CCNC(=O)CSc2nc3[nH]ncc3c(=O)n2-c2ccccc2OC)cc1OC | 12
O=C(CSc1nnc(C2CC2)n1Cc1ccccc1)Nc1cccnc1Cl | 10
COC(=O)c1cc(NC(=O)c2c(-c3c(Cl)cccc3Cl)noc2C)ccc1N1CCOCC1 | 4
CC(=O)N1CCC2(CC1)C/C(=N\NC(=S)Nc1ccccc1C)c1cc(O)ccc1O2 | 7
O=C(NCc1ccco1)Nc1ccc([N+](=O)[O-])cc1 | 7&0
CC(C)Cn1cnc2c(c1=N)C(c1ccccc1)C1=C(CC(C)(C)CC1=O)O2 (centres undefined) | 18
Cc1ccc(-n2nc(C)c3c(=O)[nH]c(C(F)(F)F)nc32)cc1 | 12
S=c1[nH]nc(COc2ccccc2)n1/N=C/c1ccccn1 | 19
CC1CCCCN1C(=O)c1ccc(OC2CCN(S(=O)(=O)N(C)C)CC2)cc1 (centres undefined) | 9
CC(=O)Nc1ccc(NC(=O)Cn2nc([N+](=O)[O-])c(Br)c2C)cc1 | 15
COc1ccc(C=O)cc1CSc1ccccn1 | 29
COC(=O)[C@@H](NC(=O)Nc1cccc(Br)c1)C(C)C | 11
COc1ccc(OC)c(NC(=O)CSc2ncnc3c2cnn3-c2ccccc2Cl)c1 | 9
CCC(C)c1ccc(O)c(NC(=S)NC(=O)c2cccnc2)c1 (centres undefined) | 18
O=C(COC(=O)c1ccc([N+](=O)[O-])o1)Nc1cccc(S(=O)(=O)N2CCCCC2)c1 | 10
O=C(NC1CC1)C1CCCN(C(=O)NC2CCCCC2)C1 (centres undefined) | 15
CCCn1c(SCC(=O)N2CC(=O)Nc3ccccc32)nc2ccccc21 | -2
Cc1ccnc(NC(=O)CCC(=O)N(CC(=O)NCc2ccccc2)Cc2cccs2)c1 | 10
Cc1cc(C)c2c(=O)[nH]c(SCc3ccccc3)nc2n1 | 19
O=C1C2C3C=CC(C2C(=O)N1c1ccc(O)cc1)C1C2C(=O)N(c4ccc(O)cc4)C(=O)C2C31 (centres undefined) | 21
COC(=O)c1c(NC(=O)c2ccc(N(C)S(=O)(=O)c3ccc(C)cc3)cc2)sc2c1CCCC2 | 15
Cc1ccccc1NC(=O)CCC(=O)N/N=C/c1ccc(F)cc1 | 8
O=S(=O)(/N=C(/c1ccccc1)N1CCCCC1)c1ccccc1 | 19
Cc1cccc(NC(=S)N/N=C2\CC(C)(C)Oc3ccc(O)cc32)c1 | 7
O=C(COC(=O)C1CC2C=CC1C2)Nc1cccc(S(=O)(=O)N2CCCCCC2)c1 (centres undefined) | 3
CCC(/C=N/Nc1ccc(S(=O)(=O)N2CCCC2)cc1[N+](=O)[O-])CC | 10
Cc1[nH]c(=S)c(C#N)c(C)c1CCC#N | 24
COc1ccc(CCNC(=O)Cn2c(=O)n(CCCC(=O)NCc3ccco3)c(=O)c3sccc32)cc1OC | 1
COc1ccc(OC)c(NC(=S)NCc2cccnc2)c1 | 12
O=C1CC(SC2=NCCS2)C(=O)N1c1cccc(Cl)c1Cl (centres undefined) | 20
COc1ccc(Cl)cc1NC(=S)Nc1ccccc1F | 12
COCCCN(CC(=O)O)S(=O)(=O)c1cccc(Cl)c1 | 0
N#C/C(=C\c1ccc(OC(=O)c2ccc(Br)s2)cc1)c1nc2ccccc2[nH]1 | 11
O=C(CCCn1cc([N+](=O)[O-])cn1)NC1CCCCCC1 | 13
CCOc1ccsc1C(=O)O | 23
Cn1c[n+](C)cc1-c1ccc(/C(N)=N/O)cc1 | 5
Cc1ccc2cc(CN(c3ccc(C)c(C)c3)S(C)(=O)=O)c(=O)[nH]c2c1 | 23
COc1ccc(CCn2cnc3c([nH]c4ccccc43)c2=O)cc1 | 18
COc1ccccc1NC(=O)NCC(c1ccco1)N1CCCCC1 (centres undefined) | 16
CC(=O)C(Cc1ccc(Cl)nc1)Cc1ccc(Cl)nc1 | -2
COc1cccc(C(=O)NC(=S)Nc2ccccc2N2CCCC2)c1 | 4
C=CCN(c1ccc(C(=O)OC)cc1)S(=O)(=O)c1ccccc1 | 18
COc1ccc(C(=O)NC(=S)Nc2ccccc2N2CCOCC2)cc1Br | 13
COc1cccc(NC(=O)CSc2nc3c(sc4ccccc43)c(=O)n2CCN(C)C)c1 | 4
The listing continues:
SMILES | Calb biofilm kill
CC(C)CC(=O)Nc1nnc(SCC(=O)NCc2ccco2)s1 | 10
COc1cc(/C=C2\SC(=S)N(C(C(=O)O)c3ccccc3)C2=O)cc(OC)c1OC (centres undefined) | 25
COC(=O)Nc1ccc(S(=O)(=O)N2CCCC(C(=O)N3CCOCC3)C2)cc1 (centres undefined) | 22
NC(=O)Cn1c(-c2nonc2N)nc2ccccc21 | 19
Cc1ccc(Sc2ccc(CN3CCCCC3)cc2[N+](=O)[O-])cc1 | 12
CC(C)(C)CC(C)(C)NC(=O)Nc1cccc([N+](=O)[O-])c1 | 5
COc1ccccc1CNC(=O)CSc1ccsc1[N+](=O)[O-] | -1
O=C(COC(=O)CSc1ccc2ccccc2c1)Nc1ccccc1OC(F)F | 11
CSCCC(NC(=O)c1cccc(S(=O)(=O)N2CCOCC2)c1)C(=O)Nc1ccc(F)cc1 (centres undefined) | 6
CC(C)CC(=O)Nc1nnc(SCC(=O)NCc2ccc3c(c2)OCO3)s1 | 13
CCOC(=O)C1CCCN(Cc2nc3ccc([N+](=O)[O-])cc3c(=O)n2-c2ccc(OC)cc2OC)C1 (centres undefined) | 12
COc1ccc(/C(C)=N/NC(=O)C2CC2)cc1 | 10
C=CCN1C(=O)C2C3C=CC(C2C1=O)C1C2C(=O)N(CC=C)C(=O)C2C31 (centres undefined) | 6
Cc1cccc2c(=O)cc(C)n(Cc3ccccc3)c12 | 4
O=C(/C=C\NCC(=O)c1ccccc1)c1ccc2ccccc2c1 | 0
COc1cccc(C2C(C#N)=C(C)NC3=C2C(=O)CC(C)(C)C3)c1 (centres undefined) | 8
O=C(N/N=C/c1ccco1)c1ccc2nc[nH]c2c1 | 16
CC(C)c1ccc(/C=N/NC(=O)c2ccccn2)cc1 | 32
O=C1CCCC/C1=C\Nc1ccc(C(=O)O)c(O)c1 | 9

Not all compounds are listed (hit frequency here may not be typical).
